NPYLR7 agonist: mosquito NPYLR7 agonism | AID 1259423 | hit rate 0.15% among 270,000 | activation, % at 10 µM | HEK293T NPYLR7/Galpha15, GCaMP6s calcium fluorescence; in the data active = activation above about 40%;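 also: 0% = vehicle and 100% = reference agonist at the receptor; some compounds past the cut are filed as inactive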
NPYLR7 agonist max-min: recorded beside NPYLR7 agonist, whose call it bears; activation, %; measured here: Max-Min RFU normalised activation; some inactives read as strong as hits;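 span of the calcium signal over five minutes; 0% = vehicle and 100% = native peptide agonist; compound fluorescence can raise it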
The depositor's hits bear a star.

Sample of the layout (2 entries):
| canonical_smiles | NPYLR7 agonist | NPYLR7 agonist max-min |
| --- | --- | --- |
| Cc1nc(C(=O)N2CCc3nc[nH]c3C2)cs1 | 4 | 1 |
| O=C(NC1CCCCC1)C1CCCN(c2ncnc3sccc23)C1 (stereo not drawn) | 6 | 3 |

The listing, repeating the preview:
| canonical_smiles | NPYLR7 agonist | NPYLR7 agonist max-min |
| --- | --- | --- |
| Cc1nc(C(=O)N2CCc3nc[nH]c3C2)cs1 | 4 | 1 |
| O=C(NC1CCCCC1)C1CCCN(c2ncnc3sccc23)C1 (stereo not drawn) | 6 | 3 |
| Cc1ccc(NS(=O)(=O)c2ccc(C(=O)O)cc2Cl)c(F)c1 | -1 | -4 |
| COc1ccccc1NC(=O)CN1C(=O)c2ccccc2C1=O | -8 | -13 |
| COC(=O)C1CCN(Cc2c(C(=O)N3CCCCCCC3)nc3sccn23)CC1 | 4 | 9 |
| Cc1ccc(-c2nc(CN3CCN(C(=O)N4CCCCC4)CC3)no2)cc1 | 9 | 9 |
| COc1ccccc1N1CCN(c2ccc(NC(=O)C3C[C@H]3c3ccccc3)cc2C(=O)NC(C)c2ccccc2)CC1 (stereo partly drawn) | 5 | -4 |
| N#Cc1cccc(NS(=O)(=O)c2cc(Cl)c(Cl)c(C(=O)O)c2)c1 | -1 | -2 |
| O=S(=O)(c1ccccc1C(F)(F)F)N1CCN(c2nccc(-c3cccc(C(F)(F)F)c3)n2)CC1 | 20 | 2 |
| Cn1cc(CN2CCS(=O)(=O)C(C)(C)C2)cn1 | 3 | 1 |
| C=Cc1ccc(Cn2c(C)c(C(=O)NCc3ccco3)sc2=O)cc1 | 9 | 4 |
| CCOc1cccc2cc(C(=O)NCc3ccncc3)c(=O)oc12 | 0 | 4 |
| COc1ccc(OC)c(-c2cc(C(=O)Nc3ncc(C)s3)[nH]n2)c1 | 15 | 12 |
| COc1ccc(NC(=O)Nc2nccn(-c3cccc(Cl)c3)c2=O)cc1OC | -2 | -4 |
| CO[C@H]1CN(C(=O)c2cn3ccsc3n2)CC[C@H]1N | 5 | 2 |
| COCCN(Cc1ccc(OC)c(OS(=O)(=O)c2ccc(F)cc2)c1)C(=O)c1ccc(Br)cc1 | -10 | -15 |
| CCOC(=O)C1CCN(C(=O)c2ccc(CSc3nc(C)cc(N4CCN(c5ccccc5Cl)CC4)n3)o2)CC1 | 5 | 18 |
| Cc1cc(CNC2CCN(Cc3ccccn3)CC2)ccc1F | -2 | -3 |
| CCc1nc(CN2CCCCC2c2ccc(F)cc2)no1 (stereo not drawn) | -2 | -3 |
| N#Cc1nc(N2CCCCC2)nc(N2CCCCC2)n1 | 2 | -1 |

Sorted by molar mass (highest first): part of the list above
| canonical_smiles | NPYLR7 agonist | NPYLR7 agonist max-min |
| --- | --- | --- |
| COC(=O)C1CCN(Cc2c(C(=O)N3CCCCCCC3)nc3sccn23)CC1 | 4 | 9 |
| COc1ccc(NC(=O)Nc2nccn(-c3cccc(Cl)c3)c2=O)cc1OC | -2 | -4 |
| N#Cc1cccc(NS(=O)(=O)c2cc(Cl)c(Cl)c(C(=O)O)c2)c1 | -1 | -2 |
| O=C(NC1CCCCC1)C1CCCN(c2ncnc3sccc23)C1 (stereo not drawn) | 6 | 3 |
| Cc1nc(C(=O)N2CCc3nc[nH]c3C2)cs1 | 4 | 1 |

(cont.)
| canonical_smiles | NPYLR7 agonist | NPYLR7 agonist max-min |
| --- | --- | --- |
| CC(=O)Nc1ccc(C(=O)N2CCCCC2c2cc(C(=O)NCc3cccnc3)no2)cc1 (stereo not drawn) | -4 | -6 |
| COc1ccc(-c2nonc2NC(=O)c2ccccc2Br)cc1OC | -2 | -4 |
| O=C1c2cccc([N+](=O)[O-])c2C(=O)N1CN1CCOCC1 | 1 | 1 |
| CCOC(=O)c1[nH]c(C)c(C(=O)C(C)N(C(=O)CC(C)CC(C)(C)C)C(C)C)c1C (stereo not drawn) | -12 | -9 |
| CC1CN(C(=O)c2ccc(CSc3ccc(Cl)cc3)cc2)CCO1 (stereo not drawn) | -4 | -2 |
| CC(C)(C)C(=O)Nc1nnc(SCc2cc(F)ccc2F)s1 | 12 | 25 |
| CC(NC(=O)c1cc(-c2ccccc2O)n[nH]1)c1cn2ccsc2n1 (stereo not drawn) | -4 | -7 |
| CCOC(=O)CN(C(=O)Cc1cccc(OC)c1)[C@@H]1C[C@@H]2CO[C@H](c3ccccc3)C[C@@H]2C1 | 24 | 27 |
| Cc1ccc(/C=C2/SC(=S)N(CCC(=O)N3CCN(C)CC3)C2=O)cc1 | 7 | 10 |
| Cc1nc2c(=O)n(CC(=O)NC3CCCC3)nc(-c3cccs3)c2s1 | 12 | 10 |
| CC(NC(=O)c1csc(CSc2nnc(-c3ccco3)n2-c2ccccc2)n1)c1ccccc1 (stereo not drawn) | -14 | -7 |
| CC[N+](CC)=c1ccc2nc3c(cc(N)c4ccccc43)oc-2c1 | -13 | -19 |
| COc1cccc(OCc2n[nH]c(=S)o2)c1 | 6 | 5 |
| CCOC(=O)C1C(=O)C=C(c2ccc(C)cc2)CC1c1ccc(OC)cc1 (stereo not drawn) | 10 | 15 |
| CCN(CC)CCCC(C)NC(=O)CSc1nc(Cl)cc(N2CCN(C(=O)c3ccc(OC)cc3)C(C)C2)n1 (stereo not drawn) | -3 | 1 |
| CCc1cccc(OCc2nc(C(=O)N3CCCC3)cs2)c1 | -3 | -10 |
| CN(C)S(=O)(=O)c1cccc(CSc2nnc(NC3CC3)s2)c1 | 8 | 5 |
| Cc1nccc(-c2cc(O)cc(CCC3CCCCN3)c2)n1 (stereo not drawn) | 1 | -3 |
| CCOC(=O)N1CCN(C(c2cccc(Cl)c2)C2Sc3nc(C)nn3C2=O)CC1 (stereo not drawn) | 8 | 6 |
| Cc1ccn2cc(-c3ccc4c(c3)OCO4)cc2c1 | 8 | 3 |
| Cn1c(=O)c2c(SCC(=O)Nc3ccccc3F)nc(C3CC3)nc2n(C)c1=O | 9 | 11 |
| NNc1ccc(C(N)=O)nn1 | 21 | 14 |
| CC(OCc1ccc(F)cc1)n1ccnc1 (stereo not drawn) | -3 | 3 |
| COC(=O)C(C)Sc1nc2c(c(=O)n1-c1ccc(OC(F)(F)F)cc1)SCC2 (stereo not drawn) | -9 | -14 |
| O=C(NC1CC1)C1CCN(C2CCN(C(=O)Cc3ccc(F)cc3)CC2)CC1 | 5 | 4 |
| CC(C)(C)C(=O)/C=c1/[nH]c(=O)/c(=C/c2ccc(F)c(Br)c2)s1 | 7 | 4 |
| Cc1cccc(Cn2[nH]c(C(C)(C)C)c(CCC#N)c2=O)c1 | 10 | 8 |
| CCc1cnc2c(c1SCc1cc(C)ccc1C)c(=O)n(C)c(=O)n2C | 6 | 10 |
| C=CCCC(O)CN(Cc1c(-c2ccccc2)nn(C)c1Oc1cccc(OC)c1)CC(C)C (stereo not drawn) | 6 | 11 |
| COc1ccc(Cl)c(NC(=O)c2ccc(C(F)(F)F)[nH]c2=O)c1 | 0 | 20 |
| CCn1cc(NC(=O)NCc2ccc(Cl)cc2)c2ccccc21 | 10 | 8 |
| Cc1cc(C(C)(C)C)cc(S(=O)(=O)O)c1C | -6 | -7 |
| O=C(NCc1ccc(-c2ncc(-c3ccc(F)cc3)[nH]2)cc1)c1ccnc(Cl)c1 | 24 | 20 |
| CCC(C)N(Cc1cccn1Cc1cccc(OC)c1)C(=O)CN(CCC(C)C)C(=O)c1ccc(OC)cc1 (stereo not drawn) | 13 | 15 |
| Cn1ccsc1=NC(=O)c1csc(-c2ccc(Cl)cc2)n1 | 9 | 5 |
| CCc1ccccc1CN1CCCn2cccc2C1c1ccc(F)c(F)c1 (stereo not drawn) | 24 | 26 |
| Cc1ccc(-c2nc3cc(C)cc(C)n3c2NC(C)(C)C)cc1 | -5 | -1 |
| Cc1ccc(C(NC(=O)c2ccn(C)c(=O)c2)C2CC2)cc1 (stereo not drawn) | 3 | -1 |
| O=C1C(=Cc2c(N3CCOCC3)nc3ccccn3c2=O)SC(=S)N1C1CCCCC1 | 5 | 4 |
| Cc1cc(COc2cccnc2[N+](=O)[O-])no1 | 5 | 7 |

Compound profiles, as listed above. Order of screens: NPYLR7 agonist	NPYLR7 agonist max-min
CCc1cnc2c(c1SCc1cc(C)ccc1C)c(=O)n(C)c(=O)n2C as listed: 6	10
Cc1cc(C(C)(C)C)cc(S(=O)(=O)O)c1C as listed: -6	-7
C=CCCC(O)CN(Cc1c(-c2ccccc2)nn(C)c1Oc1cccc(OC)c1)CC(C)C (stereo not drawn) as listed: 6	11
CC(C)(C)C(=O)/C=c1/[nH]c(=O)/c(=C/c2ccc(F)c(Br)c2)s1 as listed: 7	4

Next records follow.
| canonical_smiles | NPYLR7 agonist | NPYLR7 agonist max-min |
| --- | --- | --- |
| Cc1nc(N2CCC(C(=O)N3CCN(c4cnccn4)CC3)CC2)nc2ccc(C(C)C)cc12 | 3 | 2 |
| CCOC(=O)C1(Cc2cccc(Cl)c2)CCCN(C(=O)CCC(F)(F)F)C1 (stereo not drawn) | -8 | -13 |
| CCOC(=O)c1c(C)[nH]c(C(=O)NN=Cc2ccc(OC)c(OC)c2)c1C | 0 | -1 |
| Cc1ncc(CN2CCOC(CC(c3ccccc3)c3ccccc3)C2)n1C (stereo not drawn) | 3 | 0 |
| CCc1nc(Cn2ccnc2-c2nccn2C)no1 | -1 | -6 |
| Cc1oc(-c2ccccc2Cl)cc1C(=O)NCCCc1ccncc1 | -2 | -5 |
| COc1cccc(CN(Cc2ccccc2)CC(O)Cc2ccccc2)c1OC (stereo not drawn) | -1 | 2 |
| COc1ccc(-c2nnc3n2N=C(c2ccc(O)c(O)c2)CS3)cc1 | 3 | 3 |
| C=CCNC(=O)C[C@@H]1CCN(C(=O)C(C)(C)C)C[C@@H]1CC | -8 | -15 |
| CC(C)NC(=O)N(Cc1cccc(Cl)c1)CC1CC(c2ccc3c(c2)OCO3)=NO1 (stereo not drawn) | 17 | 29 |
| C=C(C)COc1ccccc1C(=O)N1CCC2(CC1)CN(C)CCN2C | 16 | 11 |
| O=C(Nc1nnc(SCC2CC2)s1)c1ccc(F)cc1 | -6 | -3 |
| COc1c(C)cc(C(=O)C2CCCN(Cc3ccc(Oc4ncccn4)cc3)C2)cc1C (stereo not drawn) | -2 | -3 |
| CN(C)P(=NC(=S)Nc1ccc(F)cc1)(N(C)C)N(C)C | 5 | 4 |
| Cc1cc(-c2cc(NCc3cccnc3)nc3[nH]ccc23)c(=O)[nH]c1C | 3 | -8 |
| O=C(NCCSc1cn[nH]n1)c1cccc2c1NCCC2 | -2 | -9 |
| O=C(Nc1cccc(Oc2cnccn2)c1)c1ccc(Br)cc1F | 8 | 5 |
| Cc1c(NC(=O)c2cnn3c(-c4ccccc4)cc(-c4ccccc4)nc23)c(=O)n(-c2ccccc2)n1C | 10 | 12 |
| COc1cc(/C=N\NC(=O)C(C)Sc2nc3ccccc3s2)ccc1OCc1ccccc1 (stereo not drawn) | 6 | 17 |
| COc1cc2nc(CNC(C)c3ccccc3C)[nH]c(=O)c2cc1OC (stereo not drawn) | 0 | -3 |

(list continues)
Values run as follows: NPYLR7 agonist, NPYLR7 agonist max-min
O=C(CC1Cn2ncnc2NC1=O)NCCc1ccccc1 (stereo not drawn)
→ 0, 47
CCOc1cc(CN2CCc3nnc(CCc4ccccc4)n3CC2)ccc1O
→ 16, 11
C=CCSc1nnc(NC(=O)COC)s1
→ 2, 5
CCc1nc2c(OCCOc3ccccc3)cccn2c1N(C=O)Cc1ccc(OC)cc1
→ -17, -9
O=C(O)C1CCN(S(=O)(=O)c2ccccc2C(F)(F)F)CC1
→ 0, 0
Cc1cccc(NC(=O)N2CC(=O)N3CCc4ccc(F)cc4C3C2)c1C (stereo not drawn)
→ -7, -5
COC(=O)c1ccc(CSc2c(C(C)C)cnc3c2c(=O)n(C)c(=O)n3C)cc1
→ 8, 13
Cc1nc(N(C)CCNS(C)(=O)=O)nc(C)c1CC(C)C
→ 1, 0
CCC(c1ccc(OC)cc1)N(CC)C(=O)c1cccc(N2CCNC2=O)c1 (stereo not drawn)
→ 6, 3
Cc1cc(C)cc(NC(=O)c2cn(C)c3c(=O)n(-c4ccccc4)c(=O)[nH]c23)c1
→ -1, -4

An excerpt of these results, field by field:
Cc1nc(N(C)CCNS(C)(=O)=O)nc(C)c1CC(C)C
  NPYLR7 agonist = 1
  NPYLR7 agonist max-min = 0

O=C(CC1Cn2ncnc2NC1=O)NCCc1ccccc1 (stereo not drawn)
  NPYLR7 agonist = 0
  NPYLR7 agonist max-min = 47

The results go on:
Values run as follows: NPYLR7 agonist, NPYLR7 agonist max-min
O=C(NC1C2CC3CC1CC(O)(C3)C2)c1cc(CCc2ccccc2)no1 (stereo not drawn)
→ 22, 16
N#Cc1c(N=Cc2ccco2)sc2c1CCCC2
→ 1, 1
COc1ccc(C(=O)N2CCN(c3cc(Cl)nc(SCC(=O)NCc4ccc(F)cc4)n3)CC2C)cc1 (stereo not drawn)
→ -6, -13
CC(C)(C)c1ccc(S(=O)(=O)/C=C/C#N)cc1
→ 9, -9
COC(=O)C1CC1(C#N)C(=O)Nc1ccc(C)cc1 (stereo not drawn)
→ 4, 2
COc1ccc(C(=O)N2CCCCCC2C2CCCCC2=O)cc1S(=O)(=O)NC1CC1 (stereo not drawn)
→ 1, 65
CSc1ccc(COc2coc(CN3CCCN(C(=O)C(F)(F)C(F)(F)C(F)(F)F)CC3)cc2=O)cc1
→ -2, 4
O=C(Cn1nc(-c2ccco2)c2sc(N3CCCC3)nc2c1=O)Nc1ccccc1
→ -2, -4
Clc1ccc2c(Oc3ccc(Br)cc3)ccnc2c1
→ -4, -6
O=c1c2ccsc2ncn1Cc1cc(=O)n2ccsc2n1
→ -1, -2
COc1ccc(NC(=O)C2CCN(C(=O)CCNC(=O)Nc3cc(F)ccc3C)CC2)cc1
→ 22, 34
CCC(=O)N1CCN(c2nc(C)nc(C)c2Cc2ccc(Cl)cc2Cl)CC1
→ 1, 7
CCOC(=O)C1=C(C)N=c2s/c(=C\c3c(F)cccc3Cl)c(=O)n2C1c1cccs1 (stereo not drawn)
→ 6, 13

Assay outcomes (PubChem)

This is a subset; the hit share may differ from the screen's.
